Compound activity: PubChem BioAssay, ICCB-Longwood Screening Facility, Harvard Medical School
GIV-Gai inh: inhibitors of GIV peptide binding to Galpha-i3, primary screen, biochemical, fluorescence polarization, FITC-GIV GBA peptide, rat Galphai3. Guanine nucleotide-binding protein G(i) subunit alpha-3 (Rattus norvegicus), P08753. 90 min; active compounds read low; scaled: aluminum fluoride 0%, vehicle 100%. percent of control (FP), % (no concentration beside the values). 210,000 compounds, 0.42% hits;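 active = replicate mean at 85% of control or lower, very high polarization wells dropped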;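 also: wells of about 15 µL received 100 nL stock; the first replicate is given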
Target sequence (P08753 whole entry, looked up): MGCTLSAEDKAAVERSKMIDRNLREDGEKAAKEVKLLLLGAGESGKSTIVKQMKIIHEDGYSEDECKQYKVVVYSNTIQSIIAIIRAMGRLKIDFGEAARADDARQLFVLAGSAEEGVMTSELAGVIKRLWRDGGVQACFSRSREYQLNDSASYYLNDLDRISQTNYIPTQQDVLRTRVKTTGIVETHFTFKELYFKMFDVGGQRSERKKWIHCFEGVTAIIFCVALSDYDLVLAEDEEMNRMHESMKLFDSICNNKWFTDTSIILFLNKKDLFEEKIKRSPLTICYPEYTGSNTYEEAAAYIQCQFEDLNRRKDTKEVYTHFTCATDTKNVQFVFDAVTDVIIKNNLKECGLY
Sa growth inh: S. aureus growth inhibition at 42 and 30 °C, primary screen, LtaS inhibitor project, RN4220, two temperatures | OD600, 20 h, 42 °C; active compounds read low | relative growth, % (concentration not given with the values) | 170,000 compounds, 0.53% hits;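 active = growth at 42 °C up to 50% and 20 or more points under that at 30 °C, or under 10% at both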;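 also: 300 nL library stock went into each well; scaled to the means of positive and negative controls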
HCMV UL50-53 inh: inhibitors of HCMV UL50-UL53 interaction, biochemical, HTRF. normalized percent inhibition. inhibition, % (no concentration beside the values). 190,000 compounds, 0.15% hits. HCMV UL50-UL53 nuclear egress complex (human cytomegalovirus). AID 1918969, 2023;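 active = both replicates at 50% or more, plus weaker picks with an unusually low signal ratio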;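 also: stock transfer was 100 nL into about 20 µL; 0% = negative control wells and 100% = wells with untagged competitor protein; inactives centre near -12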
Sa growth inh second temp: second read-out of Sa growth inh, no call of its own (marks repeat the call); relative growth, %; measured here: growth at 30 °C;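 optical density after 20 h as mean of two plates; 100% = untreated growth and lower means inhibition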
Starred values were filed as active, the others as inactive; x = not tested or not shown; & = joins results of further samples.

SMILES | GIV-Gai inh | Sa growth inh | Sa growth inh second temp | HCMV UL50-53 inh
COc1ccc(-c2csc(-c3cccnc3)n2)cc1 | 109 | 80&112 | 93&62 | -86&-34
Nc1nncn1C(=O)CCCOc1ccccc1 | 109 | 104 | 96 | 4
CCCn1cc(S(=O)(=O)c2ccc(CC)cc2)c(=O)c2ccccc21 | 107 | 91 | 77 | -41
S=c1[nH]nc(-c2ccncc2)n1-c1ccc2c(c1)OCO2 | 98 | 87 | 99 | 2
Cc1nn(-c2ccccc2)c2c1nc(CCC(=O)NCC1CCCO1)c(=O)n2C (stereo unspecified) | 109 | 101 | 85 | -96
OC(COc1ccc2oc3ccccc3c2c1)CN1CCN(Cc2ccccc2)CC1 (stereo unspecified) | x | 121 | 85 | -7
CC(C)(C)N(Cc1ccccc1)C(=O)c1ccco1 | 104 | 103 | 110 | -3
COc1cc(C(=O)Nc2ccc3oc(-c4ccc5ccccc5c4)nc3c2)cc(OC)c1OC | 105 | x | x | -5
COC(=O)c1cn(NC(=O)Cc2ccccc2OC)c(=O)c2ccccc12 | 102 | 98 | 90 | x
CC(=O)c1cccc(NC(=O)CCCSc2nc(-c3ccco3)cc(C(F)(F)F)n2)c1 | 105 | 104 | 67 | -17
CCOC(=O)c1c(NC(=O)c2cccc(F)c2)sc(C(=O)Nc2ccc(OC)cc2OC)c1C | 104 | x | x | -24
O=C(NC1=NCCS1)C1CCN(c2ncc(C(F)(F)F)cc2Cl)CC1 | x | 116 | 96 | -6
COCCn1c(=O)[nH]c2cc(C(=O)NCC3CCCO3)ccc2c1=O (stereo unspecified) | 101 | 93 | 95 | 2
CCCN(CCC)CCCNC(=O)c1sc2nc3n(c(=O)c2c1C)CCC3 | 99 | 111 | 94 | -2
CCOc1ccc(-n2nnc(C(=O)NCCCn3ccnc3)c2C)cc1 | 104 | 81 | 89 | -24
CS/C(N)=N/S(=O)(=O)c1cccs1 | x | 94 | 85 | -16
CC1CN(C(=S)NCc2ccco2)CC(C)O1 (stereo unspecified) | 106 | 105 | 90 | -8
CC1Sc2ccc(C(=O)Nc3ccc(S(=O)(=O)NCc4ccco4)cc3)cc2NC1=O (stereo unspecified) | x | 106 | 94 | -27
N#Cc1ccc(-c2ccccc2)nc1SC1CC(=O)N(c2ccccc2)C1=O (stereo unspecified) | 115 | x | x | -79
NC(=O)c1ccc2c3c(cccc13)CC2 | 102 | 118 | 91 | -31
Cc1cc(OC(C)C(=O)Nc2onc3c2CCCC3)ccc1Cl (stereo unspecified) | 100 | x | x | 6
CN(CC#N)c1ccc(C2OCC3(CCC4(COC(c5ccc(N(C)CC#N)cc5)OC4)C3=O)CO2)cc1 (stereo unspecified) | x | 83 | 94 | -7
Cn1ccnc1CC(O)(c1ccccc1)c1ccccc1 | x | 97 | 85 | -9
CCN1CCN(Cc2c(O)ccc3oc(C)c(C(=O)Nc4cccc(Cl)c4C)c23)CC1 | 98 | 105 | 97 | 12
CCOc1ccc(C2CSc3nc4ccccc4n3C2=O)cc1 (stereo unspecified) | 111 | 92 | 92 | -5
CCN1CCN(C(=O)c2sc3nc(C)nc(N4CCN(c5ccccn5)CC4)c3c2C)CC1 | 104 | x | x | -17
Cc1nccn1S(=O)(=O)c1c(C(C)C)cc(C(C)C)cc1C(C)C | 98 | 123 | 111 | -22
O=C(NC1CC(=O)N(c2ccc(F)cc2)C1)C1CCCC1 (stereo unspecified) | 95 | 118 | 90 | x
Cc1cccc(NC(=O)c2ccc(C)c(S(=O)(=O)N3CCCC3)c2)c1 | 100 | 110 | 82 | x
CCN(Cc1ccccc1)C(=O)Nc1c[nH]c2ccccc12 | 109 | 3.6* | 7.4* | -60
COc1cc(NC(=O)CSc2nc3nc[nH]c3c(=O)[nH]2)cc(OC)c1 | 103 | x | x | 5
O=c1[nH]c2cc3c(cc2c(=O)n1CCc1nc(-c2ccccn2)no1)OCO3 | 103 | x | x | -5
Cc1onc(-c2c(F)cccc2Cl)c1C(=O)Nc1nnc(C2CC2)s1 | 106 | 134 | 102 | x
CN(CC(=O)NC1(C#N)CCCC1)c1ccccc1 | x | 90 | 95 | -8
CCCN(C(=O)c1cc2c(=O)n(CC)c3ccccc3c2s1)c1ccccc1F | 102 | 114 | 95 | -12
CC(=O)Nc1ccc(Nc2cc(N(C)C)nc(C)n2)cc1 | 102 | x | x | -40
Cn1nc(C(=O)NCc2ccc(F)cc2)c2c1-c1ccccc1SC2 | 99 | 98 | 96 | -15
O=C(O)CC1NC(=O)c2ccccc21 (stereo unspecified) | 100 | 102 | 92 | x
Cc1cc(C)nc(SCc2nnc(Nc3ccc(S(N)(=O)=O)cc3)s2)n1 | 98 | 109 | 93 | -9
COc1ccc(CNC(=O)CC(C)CC2=NS(=O)(=O)c3ccccc3N2)cc1 (stereo unspecified) | 106 | 98 | 97 | x
Cc1cc(NC(=O)c2ccc3c(c2)OCCO3)cc(-c2nc3ccccc3o2)c1O | 104&109 | 95 | 89 | -6&-2
COCCN=C1NN=C(c2cc(C)n(CCc3ccc(F)cc3)c2C)CS1 | x | 84 | 90 | -8
CCc1cnc2c(c1SCC(=O)c1ccccc1)c(=O)n(C)c(=O)n2C | 99 | 148 | 85 | x
c1csc(SCc2ccc3nonc3c2)c1 | 101 | 91 | 83 | -13
COC(=O)C(NC(=O)CC12CC3CC(CC(C3)C1)C2)C(C)C (stereo unspecified) | 102 | 109 | 97 | -8
Cc1ccc(Cl)cc1NC(=O)CN1C(=O)COc2ccc(S(=O)(=O)N3CCOCC3)cc21 | 114 | 97 | 83 | x
CCOc1ccc(NC(=O)CN2CCCN(Cc3ccc(F)cc3)S2(=O)=O)cc1 | 102 | x | x | -31
CCCCn1c(=O)c(C(=O)OCC)c(O)c2ccccc21 | 92 | 84 | 115 | -26
COc1ccccc1N1CCN(c2ccc(=O)n(CC(=O)NCc3ccc(F)cc3)n2)CC1 | 110 | 86 | 94 | x
COc1ccc(NS(=O)(=O)c2cc(-c3ccno3)oc2C)cc1OC | 108 | x | x | -23
CN1C(=O)C2CCCCN2c2ccc(C(=O)NCc3ccc4c(c3)OCO4)cc21 (stereo unspecified) | 109 | x | x | -26
CCC(Sc1nc2ncccc2[nH]1)C(=O)Nc1ccc(Br)cc1 (stereo unspecified) | 97 | x | x | -2
COC(=O)c1cn(C(=O)OC)c2ccccc12 | 100 | 107 | 105 | -1
COc1ccc(C(=O)N2CC(=O)Nc3ccc(F)cc3C2c2ccc(F)cc2)c(OC)c1 (stereo unspecified) | 101 | 107 | 86 | -11
Cc1ccc(NS(=O)(=O)c2cn(C)cn2)cc1Cl | 106 | x | x | -12
CC(C)(C)C(=O)Nc1ccccc1C(=O)Nc1nccs1 | 102 | 101 | 93 | -10
COc1ccc2[nH]cc(CCNC(=O)c3ccc(N4CCCC4)c(S(=O)(=O)N4CCCC4)c3)c2c1 | 102 | x | x | -3
O=C(NCCNCc1ccco1)c1ccccc1 | 99 | 108 | 87 | 20
COC(=O)CSc1nc(-c2ccc(F)cc2)[nH]c1-c1ccc(C)cc1 | 98 | 77 | 55 | x
Cc1nn(-c2ccccc2)c2sc(C(=O)Nc3cccc(Cl)c3)cc12 | 104 | 105 | 90 | -6
Continuation.
SMILES | GIV-Gai inh | Sa growth inh | Sa growth inh second temp | HCMV UL50-53 inh
CCOc1ccc(Br)cc1C1N2CC3(C)CN1CC(C)(C2)C3O (stereo unspecified) | 95 | x | x | -5
COc1cc(OC)cc(-c2nc3ccccc3c(=O)n2OC(=O)/C=C/c2ccccc2Cl)c1 | 91 | x | x | -21
CCn1nc(C)c2c1c(=O)n(CCc1ccccc1)c(=O)n2CC(=O)N1CCC(C)CC1 | 97 | x | x | 6
O=C(/C=C/c1cccs1)Nc1nnc(-c2cccs2)o1 | 106 | 22 | 25 | -66
Cn1c(Cn2c(=O)sc3ccccc32)nnc1SCc1ccc(Cl)cc1 | 105 | 124 | 85 | -20
Cn1cc(S(=O)(=O)N2CCCCCC2)cc1C(=O)N1CCN(c2cccc(C(F)(F)F)c2)CC1 | 103 | 106 | 82 | x
NC(=O)C1C2CCC(C2)C1C(=O)c1ccccc1 (stereo unspecified) | x | 85 | 106 | -9
CCCNC(=O)Cn1nc(-c2ccc(C)c(C)c2)c2cnc3ccc(OC)cc3c21 | 95 | 99 | 93 | x
COc1cc(C(=O)Nc2cc3c(cc2C)n(C)c(=O)c(=O)n3C)cc(OC)c1OC | 102 | 104 | 95 | 2
Cc1cc(C)cc(NC(=O)N2CCC(CN3CCCCCC3)CC2)c1 | 104 | 117 | 98 | x
CS(=O)(=O)c1ccc(Cl)c(C(=O)OCC(=O)c2ccc3c(c2)OCO3)c1 | x | 92 | 96 | -7
O=C(CSc1nnnn1C1CCCC1)Nc1nc2ccc(F)cc2s1 | x | 104 | 79 | 3
O=C(OCc1ccco1)c1cnc(Nc2ccc(OC(F)(F)F)cc2)nc1C(F)(F)F | 103 | 88 | 80 | -33
COc1cc(NC(=O)C2=C(C)OCCS2)c(Cl)cc1C(=O)NCC1CCCO1 (stereo unspecified) | 100 | x | x | -7
COc1ccc(C(=O)N(C)C2CCCCC2)cc1 | 99 | 84 | 81 | -16
Fc1cccc(-c2noc(-c3cc(-c4cccc(Br)c4)n[nH]3)n2)c1 | 115 | x | x | -3
CCOC(=O)C1CCN(C(=O)CCCn2nc(C)c3sc4ccccc4c3c2=O)CC1 | 104 | x | x | -25
O=C(Nc1ccc(C(F)(F)F)cc1)C(Cc1ccccc1)n1cccc1 (stereo unspecified) | 102 | 65 | 42 | -35
O=C(Cn1cnc2ccccc21)N/N=C/c1ccccc1 | x | 96 | 91 | -39
O=C(COC(=O)Cc1ccsc1)NCc1ccccc1 | x | 70 | 88 | -10
CSc1cccc(NC(=O)CCSc2ccccc2)c1 | 110 | 110 | 103 | 19
Cc1cccc(OCC(=O)Nc2nnc(S(=O)(=O)N3CCc4ccccc43)s2)c1 | 102 | 100 | 87 | -15
O=C(NCc1ccccc1)c1sc(=S)n2c1[nH]c(=O)c1ccccc12 | 101 | 16 | 9 | -33
C=CCn1c(SCc2cccc(F)c2)nc2c(-c3ccccc3)cn(C)c2c1=O | 105 | x | x | -26
COc1ccc2c(C(F)(F)F)cc(SCC(=O)N3CCCC3)nc2c1 | 108 | 92 | 68 | 8
O=C(Nc1ccc(C(=O)N2CCN(c3ccc(Cl)cc3)CC2)cc1)c1nsc2ccccc12 | 107 | 104 | 98 | x
CC(C)c1cnc2c(c1SCC(=O)Nc1cccc([N+](=O)[O-])c1)c(=O)n(C)c(=O)n2C | 103 | 86 | 80 | x
COC(=O)c1cc(-c2ccc(OC)c(OC)c2)nc2c1cnn2C(C)C | x | 75 | 93 | -42
O=C(Nc1ccc2c(c1)OCCO2)c1cccc(Nc2ccc(-c3cccc(F)c3)nn2)c1 | 101 | x | x | -30
COc1ccc(NC(=O)C2CCN(c3ccc(Sc4ccc(C)cc4)nn3)CC2)c(OC)c1 | 102 | 85 | 93 | -14
COc1cccc(NC(=O)C2CCN(c3nn4cc(-c5ccc(F)cc5)nc4s3)CC2)c1 | 101 | 88 | 66 | x
CCN1CCCC1CNC(=O)C1CCN(Cc2nc(-c3ccc(OC)c(OC)c3)no2)CC1 (stereo unspecified) | 108 | x | x | -8
COc1ccc(NC(=O)COC(=O)c2nn(C)c(=O)c3ccccc23)cc1 | x | 74 | 91 | -14
CN(Cc1ccccc1)c1nc2c(S(=O)(=O)c3ccccc3)nnn2c2ccsc12 | 103 | 116 | 92 | x
CC(C)n1c(O)c(N=NC(=O)Cc2csc(N3CCOCC3)n2)c2ccccc21 | x | 97 | 90 | -95

Among those listed so far, these have two or more sulfur atoms:
SMILES | GIV-Gai inh | Sa growth inh | Sa growth inh second temp | HCMV UL50-53 inh
CS/C(N)=N/S(=O)(=O)c1cccs1 | x | 94 | 85 | -16
CC1Sc2ccc(C(=O)Nc3ccc(S(=O)(=O)NCc4ccco4)cc3)cc2NC1=O (stereo unspecified) | x | 106 | 94 | -27
Cc1cc(C)nc(SCc2nnc(Nc3ccc(S(N)(=O)=O)cc3)s2)n1 | 98 | 109 | 93 | -9
c1csc(SCc2ccc3nonc3c2)c1 | 101 | 91 | 83 | -13
O=C(/C=C/c1cccs1)Nc1nnc(-c2cccs2)o1 | 106 | 22 | 25 | -66
Cn1c(Cn2c(=O)sc3ccccc32)nnc1SCc1ccc(Cl)cc1 | 105 | 124 | 85 | -20
O=C(CSc1nnnn1C1CCCC1)Nc1nc2ccc(F)cc2s1 | x | 104 | 79 | 3
CSc1cccc(NC(=O)CCSc2ccccc2)c1 | 110 | 110 | 103 | 19
Cc1cccc(OCC(=O)Nc2nnc(S(=O)(=O)N3CCc4ccccc43)s2)c1 | 102 | 100 | 87 | -15
O=C(NCc1ccccc1)c1sc(=S)n2c1[nH]c(=O)c1ccccc12 | 101 | 16 | 9 | -33
CN(Cc1ccccc1)c1nc2c(S(=O)(=O)c3ccccc3)nnn2c2ccsc12 | 103 | 116 | 92 | x
